Compound activity (PubChem)
SARS PLP yeast – qHTS of Yeast-based Assay for SARS-CoV PLP; S. cerevisiae expressing SARS-CoV PLpro, growth rescue; control for the full effect not named in the record; Potency, µM (series often up to 32.9 µM), without a hit: top-dose activity, positive = growth rescue; 330,000 tested, 0.19% active; note: 0% is about no effect; nearly all actives have a fitted effect of over 55% in size; growth read by luminescence after 48 h
Marburg entry inh – qHTS for inhibitors of binding or entry into cells for Marburg Virus. 300,000 tested, 1.8% active. Marburg virus pseudotyped entry inhibition, cell reporter; control for the full effect not named in the record; about a third of the inactives were read at about 46 µM. Potency, µM (titrated, usually from 37.8 µM), without a hit: at the highest dose activity change, negative = inhibition, actives largely listed as inhibitors; active = well fitted inhibition curve with a large enough effect; inconclusive = small, poorly fitted or top-dose-only effect, or effect the other way; inactive = flat fitted curve, though single readings scatter; tested in HEK293 cells; about a fifth of its hits are not listed in these tables; note: % is set by controls: 0 for no effect and ±100 for the full control effect; luciferase read-out
RE007 growth inh – qHTS Assay for Inhibitors of the HIV-1 protein Vpr; S. pombe RE007 Vpr strain, BacTiter-Glo ATP luminescence, 24 h; control for the full effect not named in the record; Potency, µM (doses to about 92.2 µM), without a hit: at the top dose activity change, negative = less growth; 360,000 tested, 0.21% active; active = well fitted falling curve with a large enough effect; inconclusive = small, poorly fitted or top-dose-only effect; inactive = no such curve, though single readings can be large or run the other way;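 note: % is set by controls: 0 for no effect and ±100 for the full control effect; nearly all actives have a fitted effect of over 50% in size; the assay follows cell death caused by Vpr and the record does not say whether a fall means rescue or toxicity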
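Fission yeast strain RE007, carrying one chromosomally integrated HIV-1 vpr copy, was seeded at OD 0.01 in PMG+AL medium with 23 nL pinned compound. After 24 h at 30 °C and 99% humidity, viability was read by BacTiter-Glo luminescence.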
Cruzain noTriton – qHTS Assay for Promiscuous and Specific Inhibitors of Cruzain (without detergent); 200,000 tested, 2.3% active; Potency, µM, for inactives: max response, negative = inhibition, actives largely listed as inhibitors; purified cruzain, Z-FR-AMC fluorescence, no detergent; Cruzipain (Trypanosoma cruzi), P25779; active = well fitted curve in the direction sought with a large enough effect; inconclusive = small, poorly fitted or top-dose-only effect, or another doubt; inactive = no such curve, though single readings can be large; an effect the other way counts as inactive or inconclusive;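 note: plate controls were enzyme without inhibitor for no effect and buffer without enzyme for full effect; nearly all actives have a fitted effect of over 40% in size; top concentration of the series not given in the record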
Target sequence (P25779 123-467 limits assumed): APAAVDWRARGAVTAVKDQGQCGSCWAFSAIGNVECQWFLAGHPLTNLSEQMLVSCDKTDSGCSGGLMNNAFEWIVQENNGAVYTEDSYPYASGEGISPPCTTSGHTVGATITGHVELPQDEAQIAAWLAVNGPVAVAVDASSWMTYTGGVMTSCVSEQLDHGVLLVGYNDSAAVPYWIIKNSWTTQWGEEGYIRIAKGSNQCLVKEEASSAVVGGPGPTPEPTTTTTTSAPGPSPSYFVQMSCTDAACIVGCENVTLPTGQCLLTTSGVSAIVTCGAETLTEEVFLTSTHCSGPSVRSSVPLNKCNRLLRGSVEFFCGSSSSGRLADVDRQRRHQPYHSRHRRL
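Purified cruzain at 1.5 nM, pre-incubated 15 min with compound at room temperature in 100 mM sodium acetate pH 5.5, 5 mM DTT, 0.00005% Triton X-100. Reaction started with 2 uM Z-FR-AMC; AMC fluorescence increase over 60 s gives rate.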
StopGo reporter – High Throughput Screening for Foot and Mouth Disease Virus Antivirals; human cells with a luciferase reporter of 2A StopGo recoding; control for the full effect not named in the record; Potency, µM (series often up to 57.9 µM), without a hit: top-dose signal change, negative = less light; 410,000 tested, 1.2% active; AID 1159524, 2015; active = well fitted falling curve with a large enough effect; inconclusive = small, poorly fitted or top-dose-only effect; inactive = no such curve, though single readings can be large or run the other way; tested in HEK293T cells; note: % is set by controls: 0 for no effect and ±100 for the full control effect; nearly all actives have a fitted effect of over 45% in size; luciferase light after 4 h
NS1 inh – qHTS Assay for Inhibitors of Influenza NS1 Protein Function | S. cerevisiae slowed by influenza A NS1, growth recovery by OD600 | Potency, µM (doses to about 46.1 µM), without a hit: at the top dose activity, positive = more growth | 270,000 tested, 0.4% active; note: actives are rising curves; nearly all actives have a fitted effect of over 50% in size
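OD600 was taken as the measure of yeast growth restored by compound in an NS1-expressing S. cerevisiae strain. Cells had been washed out of glucose medium and diluted 1:100 into galactose -URA medium, pH 6.0.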
Cruzain Triton – qHTS Assay for Promiscuous and Specific Inhibitors of Cruzain (with detergent). 200,000 tested, 0.43% active. purified cruzain, Z-FR-AMC fluorescence, 0.01% Triton. Potency, µM, without a hit: max response, negative = inhibition, hits mostly inhibitors. Cruzipain (Trypanosoma cruzi), P25779; active = well fitted curve in the direction sought with a large enough effect; inconclusive = small, poorly fitted or top-dose-only effect, or another doubt; inactive = no such curve, though single readings can be large; an effect the other way counts as inactive or inconclusive;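 note: plate controls were neutral wells for no effect and buffer without enzyme for full effect; nearly all actives have a fitted effect of over 40% in size; top concentration of the series not given in the record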
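Sodium acetate buffer (100 mM, pH 5.5) containing 5 mM DTT and 0.01% Triton X-100 hosted 1.5 nM cruzain and test compound for 15 min at room temperature. Cleavage of 2 uM Z-FR-AMC was then tracked by fluorescence.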
LASV entry inh – qHTS for Inhibitors of binding or entry into cells for Lassa Virus; Lassa virus pseudotype entry inhibition, cell reporter; control for the full effect not named in the record; Potency, µM (highest dose often 37.9 µM), for the others: at the top dose activity change, negative = inhibition, actives largely listed as inhibitors; 300,000 tested, 1.2% active; AID 540256, 2011; active means well fitted inhibition curve with a large enough effect; inconclusive means small, poorly fitted or top-dose-only effect, or effect the other way; inactive means flat fitted curve, though single readings scatter; tested in HEK293 cells; note: % is set by controls: 0 for no effect and ±100 for the full control effect; nearly all actives have a fitted effect of over 50% in size; luciferase read-out
Active calls of the source: *; ? = inconclusive; / = not tested or not shown; & = joins results of further samples; [ ] = remark or other dose. Unless noted, calls come from the whole dose curve; as a rule, active means well fitted rising curve with a large enough effect; inconclusive means small, poorly fitted or top-dose-only effect; inactive means no such curve, though single readings can be large or run the other way. Potency is the fitted concentration of half-maximal effect.

Fields: Cruzain noTriton, Marburg entry inh, LASV entry inh, StopGo reporter, NS1 inh, RE007 growth inh, SARS PLP yeast, Cruzain Triton
- COc1cc([N+](=O)[O-])cc(/C=N/NC(=O)c2cccnc2)c1O
    /, /, /, -10%, 3%, 17%, 0%, /
- CC(C(=O)N(C)C1CCCCC1)N1CCC(C(N)=O)CC1 (stereo not given)
    /, ?, 0%[46.1 µM], 2%, 5%, -1%, 3%, /
- COc1cccc(N2CCN(c3ccc4nnc(CCC(=O)Nc5cc(C)ccn5)n4n3)CC2)c1
    /, /, /, -16%, 5%, 2%, -5%, /
- Cc1noc(NS(=O)(=O)c2ccc(NC(=O)C(Cl)(Cl)Cl)cc2)c1C
    /, -18%, -5%, -2%, 2%, 1%, 4%, /
- CC(=O)N/C(=C\c1cccc([N+](=O)[O-])c1)C(=O)NC(C)C
    -2%, 11%, -2%, -10%, 11%, 19%, -1%, -4.2%
- COc1ccc2cc(S(=O)(=O)c3ccccc3F)c(=O)oc2c1
    5%, -21%[46.1 µM], ?, -3%, /, /, /, ?
- COc1c(O)cc2oc(-c3ccc(O)cc3)cc(=O)c2c1O
    /, /, /, -14%&-2%, -81%, -12%, -6%, /
- O=C(c1ccc(Cl)s1)N1CCc2ccccc21
    -1%, ?, -4%, 21%, -20%, ?, -6%, 6.8%
- Cc1ccc(CS(=O)(=O)Cc2ccc(C(=O)NCCc3ccccc3)o2)cc1
    /, /, /, -13%, -5%, 3%, 0%, /
- CCc1cc(-c2n[nH]c(C)c2-c2ccccc2Cl)c(O)cc1OC
    /, /, /, ?, 0%, -11%, -11%, /
- CNC(=O)c1cccn(Cc2ccc(C(F)(F)F)cc2)c1=O
    /, ?, -27%, -15%, /, 26%, -3%, /
- Cc1ccc(NC(=O)c2c(C(F)(F)F)nn(C)c2SCc2ccc(Cl)cc2)cc1C
    -5%, ?, 7%, -8%, 14%, 23%, -6%, 0.4%
- O=C(c1cccc(F)c1)N1CCN(Cc2cccc(Br)c2)CC1
    /, /, /, -17%, -12%, -7%, 15%, /
- COc1ccc(NC(=O)C2CCN(S(C)(=O)=O)CC2)cc1OC
    /, /, /, -20%, -1%, -3%, 4%, /
- FC(F)(F)c1ccccc1-c1nc(-c2ccncc2)no1
    /, ?, 15%, 14%, -4%, 6%, -3%, /
- O=C(c1ccc(N2CCOCC2)nc1)N1CCOCC1
    -10%, 29%, 7%, /, -9%, -2%, 9%, 11%
- COc1ccc(-n2c(C)cc(C(=O)COC(=O)Cc3n[nH]c(=O)c4ccccc34)c2C)cc1
    ?, ?, ?, 28µM*, 17%, 6%, -20%, -6.2%
- Cc1nc(C(=O)NC2CC2)sc1C1(C)CC(c2ccccc2)=NO1 (stereo not given)
    /, /, /, 14%, -45%, -13%, 1%, /
- O=C(COC(=O)c1ccc([N+](=O)[O-])o1)Nc1ncc(Cl)cc1Cl
    /, 9%, 2%[46.1 µM], 0%, /, ?, -18%, /
- COc1ccc2nc(N(Cc3cccnc3)C(=O)C3COc4ccccc4O3)sc2c1 (stereo not given)
    4%, /, ?, 0%, /, /, /, -4.1%
- NC(=O)CN1CCCC1c1ccc2c(c1)OCCO2 (stereo not given)
    /, 13%[46.1 µM], 19%, -10%, 6%, 14%, 1%, /
- COc1ccc(C2=NS(=O)(=O)N(C)C(C(=O)Nc3ccc4c(c3)OCO4)=C2)cc1OC
    /, /, /, ?, 9%, 1%, 6%, /
- CCOC(=O)Cn1c(=O)c2c(nc3n2CCN3Cc2ccccc2)n(C)c1=O
    -2%, 1%, -17%, 0%, 2%, 27%, -1%, 0.8%
- CCn1c(SCC(=O)NC2CCCCC2)nc2ccccc2c1=O
    /, -9%, 12%, 2%, -2%, -11%, -2%, /
- O=C1CCCC2=C1C1(CCCC1)N=C(Nc1nc3ccccc3s1)N2
    6%, 1%, 0%, -7%, -2%, -8%, 4%, -24%
- CCN1CCN(c2cc(C)c3cc(NC(=O)c4cc(Br)ccc4Cl)ccc3n2)CC1
    -4%, ?, ?, -17%, /, /, /, -16%
- Cc1ccc(NC2CC(C)NC(=S)N2)cc1 (stereo not given)
    /, 6%, 15%, -4%, 7%, -6%, 1%, /
- CC(C)Cn1c(O)c(/C=C2\C=NN=C2c2ccccc2)sc1=S
    -1%, ?, 13µM*, 0%, -2%, ?, -27%, -5.0%
- CCOc1ccccc1OC(=O)c1ccco1
    -2%, ?, 4%, 4%, -5%, 6%, /, 2.1%
- CCOc1nc(N=C(N)N)nc2c(C)cccc12
    -1%, -19%, -5%, -17%, 12%, -4%, 1%, -16%
- Cc1ccc2oc(-c3cccc(NC(=O)c4cc(-n5cnnc5)ccc4Cl)c3)nc2c1
    ?, ?, ?, -9%, 19%, -1%, ?, -6.8%
- CC(O)(CS(=O)(=O)Cc1ccccc1)C(=O)Nc1cccc(C(F)(F)F)c1 (stereo not given)
    -4%, -10%, 10%, 6%, 7%, -6%, -2%, 11%
- COc1ccc2c(c1)C1(C)CC(C)(C)N2C(=O)N1c1ccccc1 (stereo not given)
    20%, -26%, 5%, ?, 14%, 0%, -13%, -6.2%
- CCOc1ccc(CCNC(=O)COC(=O)c2ccc(Cl)nc2)cc1OCC
    /, 12%, ?, -7%, /, -18%, -1%, /
- COc1ccccc1/C=C/C(=O)Nc1cccc(C(C)=O)c1
    /, ?, -9%, 2%, -7%, 25%, -1%, /
- CCN(C(=O)Cc1c(C(=O)O)n(CC)c2ccccc12)c1ccccc1C
    /, /, /, -2%, 9%, 17%, 0%, /
- COC(=O)C(O)(c1ccc(N(C)C(=O)COc2ccccc2)cc1)C(F)(F)F (stereo not given)
    10%, 24%, ?, -1%, -3%, -7%, 7%, -3.8%
- O=C(NCc1ccccc1Cl)c1cc2c(s1)-c1ccccc1SC2
    25µM*, ?, -25%[46.1 µM], 37%[activator], /, /, /, -4.9%
- O=[N+]([O-])c1cccc(C(=NCc2ccccc2)NO)c1
    /, /, /, -15%, -3%, -2%, -2%, /
- CCc1nn(CC(=O)N2CCN(c3ccc(OC)cc3)CC2)c(=O)c2cc3sccc3n12
    -5%, -2%[46.1 µM], /, -18%, /, /, /, -1.9%
- CC(=O)c1cc(C(=O)N2CCCC(C(=O)c3ccc(Cl)cc3)C2)cs1 (stereo not given)
    /, -1%, 0%, -11%, 0%, 13%, -3%, /
- O=c1[nH]ncc(N2CCCCCC2)c1Cl
    /, 14%[46.1 µM], -1%[46.1 µM], 10%, 3%, -4%, 1%, /
- CC(=O)N=C1SC2CS(=O)(=O)CC2N1c1c(Cl)cccc1Cl (stereo not given)
    3%, ?, 3%, 0%, 10%, 0%, 5%, 0.8%
- Cc1ccc(C)c(S(=O)(=O)NCC(c2ccc(N(C)C)cc2)N2CCOCC2)c1 (stereo not given)
    -8%, /, ?, 23%, /, /, /, -2.6%
- COc1cc(-c2nnc(SCC(=O)Nc3ccc4c(c3)OCCO4)o2)cc(OC)c1OC
    ?, 12%, -8%, 8%, -16%, 5%, 1%, 2.3%
- CC1(CCc2ccc3c(c2)OCO3)NCCc2c1[nH]c1ccccc21 (stereo not given)
    /, /, /, -23%, 0%, -20%, 0%, /
- COc1cc(Br)cc2cc(C(=O)N3CCN(c4ccccn4)CC3)c(=O)oc12
    -13%, 30%, 2%, -7%, 9%, 6%, -4%, -3.9%
- Cc1ccc(NC(=O)c2ccc(CNS(=O)(=O)c3cccc(C(F)(F)F)c3)cc2)cc1
    25µM*, 23%, 0%, -17%, 7%, 16%, 4%, -13%
- COc1ccc(CCN2C(=O)C3C4C=CC(C5CC45)C3C2=O)cc1OC (stereo not given)
    /, -2%[46.1 µM], -13%, -8%, 0%, 13%, 0%, /
- Cc1cccc(C)c1NC(=O)CN(C)C(=O)c1ccc2nc[nH]c2c1
    /, 15%, 8%[46.1 µM], -7%, /, -11%, 4%, /

Shown in markdown: part of the list above
| Molecule | Cruzain noTriton | Marburg entry inh | LASV entry inh | StopGo reporter | NS1 inh | RE007 growth inh | SARS PLP yeast | Cruzain Triton |
| --- | --- | --- | --- | --- | --- | --- | --- | --- |
| CC1(CCc2ccc3c(c2)OCO3)NCCc2c1[nH]c1ccccc21 (stereo not given) | / | / | / | -23% | 0% | -20% | 0% | / |
| COc1cc(Br)cc2cc(C(=O)N3CCN(c4ccccn4)CC3)c(=O)oc12 | -13% | 30% | 2% | -7% | 9% | 6% | -4% | -3.9% |
| Cc1ccc(NC(=O)c2ccc(CNS(=O)(=O)c3cccc(C(F)(F)F)c3)cc2)cc1 | 25µM* | 23% | 0% | -17% | 7% | 16% | 4% | -13% |
| COc1ccc(CCN2C(=O)C3C4C=CC(C5CC45)C3C2=O)cc1OC (stereo not given) | / | -2%[46.1 µM] | -13% | -8% | 0% | 13% | 0% | / |

More entries
Fields: Cruzain noTriton, Marburg entry inh, LASV entry inh, StopGo reporter, NS1 inh, RE007 growth inh, SARS PLP yeast, Cruzain Triton
- CC(=O)c1cccc(NC(=O)c2ccc(S(=O)(=O)N3CCCC3)cc2)c1
    /, 3%[46.1 µM], 7%[46.1 µM], -13%, 6%, -7%, 3%, /
- COC(=O)CSc1ccc2c(N)c(C(=O)OC)sc2c1
    -9%, 6%, -9%, -20%, -60%, -31%, -33%, -12%
- O=C(CSc1ncn[nH]1)Nc1ccnc2ccccc12
    -1%, 6%, /, ?, 4%, 4%, 5%, 5.4%
- CCCCOc1ccc(S(=O)(=O)N2CCN(C)CC2)cc1
    /, ?, ?, 41%[activator], /, -3%, /, /
- CC1Sc2ccc(S(=O)(=O)CCC(=O)Nc3cc(F)ccc3F)cc2NC1=O (stereo not given)
    /, /, /, -11%, 1%, 2%, -4%, /
